KCNQ2 pot: KCNQ2 (rat) channel potentiation; O88943; CHO-K1 KCNQ2, FluxOR thallium flux fluorescence; hits give high values; B-score at 10 µM; 0.54% of 310,000 active;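 active = fluorescence ratio B-score at least 3 SD of library B-scores, with initial fluorescence B-score within 3 SD, cut at about 5.3 in these data; same plate scores as AID 2156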;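 also: B-score of peak minus minimum over baseline fluorescence ratio after K+ and Tl+ stimulus; positive B-score means potentiation of KCNQ2 with more thallium influx and brighter signal; only the inactives scoring about 0 or higher are listed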
Target sequence (O88943 whole entry, looked up): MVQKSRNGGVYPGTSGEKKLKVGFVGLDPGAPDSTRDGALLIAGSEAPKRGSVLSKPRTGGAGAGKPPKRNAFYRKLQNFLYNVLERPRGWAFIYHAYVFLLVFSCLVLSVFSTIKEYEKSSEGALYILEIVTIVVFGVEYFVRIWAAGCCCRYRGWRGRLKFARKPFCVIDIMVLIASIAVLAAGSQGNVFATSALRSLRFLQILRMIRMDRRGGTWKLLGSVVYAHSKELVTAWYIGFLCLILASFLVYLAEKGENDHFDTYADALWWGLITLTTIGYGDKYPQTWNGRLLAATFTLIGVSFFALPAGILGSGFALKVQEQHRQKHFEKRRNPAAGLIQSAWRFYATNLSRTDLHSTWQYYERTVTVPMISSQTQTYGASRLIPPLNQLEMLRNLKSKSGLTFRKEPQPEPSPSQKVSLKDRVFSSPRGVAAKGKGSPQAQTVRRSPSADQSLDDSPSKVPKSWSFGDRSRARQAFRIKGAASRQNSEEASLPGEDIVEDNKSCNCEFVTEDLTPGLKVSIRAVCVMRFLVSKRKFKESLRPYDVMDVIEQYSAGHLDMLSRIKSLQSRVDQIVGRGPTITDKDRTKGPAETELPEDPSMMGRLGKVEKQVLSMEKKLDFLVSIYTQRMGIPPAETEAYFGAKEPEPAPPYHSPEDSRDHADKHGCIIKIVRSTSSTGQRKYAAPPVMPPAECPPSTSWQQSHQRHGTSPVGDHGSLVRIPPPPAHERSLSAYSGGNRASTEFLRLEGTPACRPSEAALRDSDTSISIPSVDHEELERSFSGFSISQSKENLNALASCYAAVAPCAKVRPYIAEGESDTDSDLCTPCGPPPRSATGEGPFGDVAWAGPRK
KCNQ2 pot baseline: further read-out of KCNQ2 pot, marked with its call; B-score; compound at 10 µM; measured here: initial fluorescence intensity artifact check;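 brightness before thallium and not channel activity; 0 = typical well and far values either way flag optical interference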
Numbers without * were called inactive.

How did Nc1nc(NCCN2CCOCC2)nc(NCc2ccccc2)c1[N+](=O)[O-] do in these assays?
KCNQ2 pot: 0.76; KCNQ2 pot baseline: -1.6

How did CC(C)(C)c1cc(NC(=O)c2cc(F)c(F)c(F)c2F)no1 do in these assays?
KCNQ2 pot: 0.68; KCNQ2 pot baseline: -0.54

Results for O=C(NCCOC(=O)c1ccc(Cl)c(S(=O)(=O)N2CCCCC2)c1)c1ccncc1 ?
KCNQ2 pot: 0.31; KCNQ2 pot baseline: -1.6

What do the screens show for `CCOC(=O)c1nnn(-c2nonc2N)c1CSc1nnc(N)s1`?
KCNQ2 pot: 0.34; KCNQ2 pot baseline: -2

How did Cc1c(CN2CCC(Oc3ccc(C(=O)N4CCCCC4)cc3)CC2)cnn1C do in these assays?
KCNQ2 pot: 1.1; KCNQ2 pot baseline: -0.49

Results for CN(C)S(=O)(=O)n1cc(/C=C(\NC(=O)c2ccccc2Cl)C(=O)N2CCCC2)c2ccccc21 ?
KCNQ2 pot: 0.4; KCNQ2 pot baseline: -1.3

What do the screens show for `Cc1ccc(CN2CC(C(=O)Nc3cccc(S(=O)(=O)N4CCCCC4)c3)CC2=O)cc1` (stereo not given)?
KCNQ2 pot: 1.3; KCNQ2 pot baseline: 0.06

How did COC(=O)C(=O)/C=C(\O)c1ccc(C)cc1 do in these assays?
KCNQ2 pot: 0.97; KCNQ2 pot baseline: -0.22

Results for O=C(NCC(c1ccc(F)cc1)N1CCOCC1)c1cccnc1Sc1ccccc1Cl (stereo not given) ?
KCNQ2 pot: 0.14; KCNQ2 pot baseline: -0.12

How did CN(C(=O)c1ccco1)c1ccccc1C(=O)O do in these assays?
KCNQ2 pot: 0.89; KCNQ2 pot baseline: 0.11

Results for Cc1ccc(S(C)(=O)=O)cc1C(=O)NC(C)C1CC2CCC1C2 (stereo not given) ?
KCNQ2 pot: 0.22; KCNQ2 pot baseline: 0.26

How did Cc1cc(=O)n2[nH]c(N)c(N=Nc3ccccc3)c2n1 do in these assays?
KCNQ2 pot: 1.9; KCNQ2 pot baseline: 0.43

How did O=C(CNC(=O)c1ccccc1F)OCc1csc(-c2ccccc2)n1 do in these assays?
KCNQ2 pot: 1.3; KCNQ2 pot baseline: 0.64

Results for Cc1nc(C)c(C(=O)C2=C(O)C(=O)N(CCCn3ccnc3)C2c2ccccc2)s1 (stereo not given) ?
KCNQ2 pot: 0.34; KCNQ2 pot baseline: 2

How did O=C1NC(=S)CN1c1ccccc1 do in these assays?
KCNQ2 pot: 1.1; KCNQ2 pot baseline: -0.26

How did O=C(Nc1ccccc1OC(F)(F)F)c1ccc([N+](=O)[O-])cc1 do in these assays?
KCNQ2 pot: 0.02; KCNQ2 pot baseline: 0.41

Results for CC12CCC(C(=O)N(CC3CO3)C1=O)C2(C)C (stereo not given) ?
KCNQ2 pot: 0.47; KCNQ2 pot baseline: -1.2

How did CC(=O)Oc1ccc2oc(C)c(C(=O)N3CCOCC3)c2c1 do in these assays?
KCNQ2 pot: 0.06; KCNQ2 pot baseline: 0.52

Results for Cc1ccc(NC(=O)NCc2ccccn2)c(C)c1 ?
KCNQ2 pot: 0.32; KCNQ2 pot baseline: -0.32

What do the screens show for `Nc1nonc1-c1noc(-c2ccccc2Br)n1`?
KCNQ2 pot: 0.24; KCNQ2 pot baseline: -0.71

What do the screens show for `COc1ccc(Cl)cc1S(=O)(=O)N1CCC(C(=O)NCc2ccco2)CC1`?
KCNQ2 pot: 0.98; KCNQ2 pot baseline: -0.15

Results for COC(=O)c1cnn(-c2ccc(F)cc2F)c1/C=N/NC(=S)NC(C)(C)C ?
KCNQ2 pot: 3.2; KCNQ2 pot baseline: 0.15

What do the screens show for `N/C(Cc1ccc(Cl)cc1)=N\OC(=O)c1ccccc1`?
KCNQ2 pot: 0.32; KCNQ2 pot baseline: 0.47

How did COc1ccc2c(c1)O/C(=C\c1ccco1)C2=O do in these assays?
KCNQ2 pot: 0.04; KCNQ2 pot baseline: -0.16

Results for CCCN(Cc1cc2ccc(C)cc2[nH]c1=O)C(=O)c1ccccn1 ?
KCNQ2 pot: 0.79; KCNQ2 pot baseline: -0.57

How did CC(C)(C)NC(=O)COC(=O)c1c2c(nc3ccccc13)CCC2 do in these assays?
KCNQ2 pot: 0.4; KCNQ2 pot baseline: -0.85

What do the screens show for `COc1ccc2nc(NC3=NCCC3)sc2c1`?
KCNQ2 pot: 2.2; KCNQ2 pot baseline: 0.07

Results for COc1ccc(S(=O)(=O)n2cnc3ccccc32)c(C)c1 ?
KCNQ2 pot: 0.53; KCNQ2 pot baseline: 0.92

What do the screens show for `CCCn1c(SCC(=O)Nc2cccc(C)n2)nnc1-c1ccco1`?
KCNQ2 pot: 1.6; KCNQ2 pot baseline: -0.59

How did CC12CN3CC(C)(CN(C1)C3c1ccc3c(c1)OCO3)C2O (stereo not given) do in these assays?
KCNQ2 pot: 0.91; KCNQ2 pot baseline: -0.88

What do the screens show for `Oc1ccccc1C(=S)N1CCCCCC1`?
KCNQ2 pot: 0.11; KCNQ2 pot baseline: 1.3

Results for CC(C)Cc1nc(N2CCOCC2)c(C#N)c2c1COC(C)(C)C2 ?
KCNQ2 pot: 0.25; KCNQ2 pot baseline: 0.65

How did Cc1nc2ccccc2n1CC(=O)N/N=C\c1ccccn1 do in these assays?
KCNQ2 pot: 0.14; KCNQ2 pot baseline: 0

What do the screens show for `CCOC(=O)CN1N=C(/C=C/c2ccccc2)CCC1=O`?
KCNQ2 pot: 0.71; KCNQ2 pot baseline: 0.05

Results for Cc1cc(C(=O)CN2C(=O)C(=O)N(Cc3ccccc3)C2=O)c(C)n1-c1ccccc1F ?
KCNQ2 pot: 0.19; KCNQ2 pot baseline: -0.08

Results for O=C1C(=O)N(CCCN2CCOCC2)C(c2ccc([N+](=O)[O-])cc2)/C1=C(\O)c1ccc2c(c1)OCCO2 (stereo not given) ?
KCNQ2 pot: 0.86; KCNQ2 pot baseline: 0.78

Results for CC(=O)Oc1ccc2cc(-c3nc4ccccc4n3C)c(=O)oc2c1 ?
KCNQ2 pot: 0.64; KCNQ2 pot baseline: 0.76

Results for Cc1ccccc1NS(=O)(=O)c1ccc(OCC(=O)N2CCCCC2)cc1 ?
KCNQ2 pot: 0.97; KCNQ2 pot baseline: 0

How did CCc1c(C(=O)NNC(=O)Nc2ccc3c(c2)OCO3)csc1C do in these assays?
KCNQ2 pot: 1.2; KCNQ2 pot baseline: 0.16

How did COc1ccc(NC(=O)CSc2nnc(Cc3cccs3)n2-c2ccc(C)cc2)cc1 do in these assays?
KCNQ2 pot: 0.02; KCNQ2 pot baseline: -2.4

How did N[C@@H](Cc1ccc(O)cc1)c1nnc([C@H](CCC(=O)O)NC(=O)C2CCNCC2)o1 do in these assays?
KCNQ2 pot: 0.18; KCNQ2 pot baseline: -0.17

How did CNC(=O)/C(C#N)=C1/SC(Cc2ccc(F)cc2)C(=O)N1c1ccccc1 (stereo not given) do in these assays?
KCNQ2 pot: 0.97; KCNQ2 pot baseline: -1

How did O=C(c1ccccc1)c1nc[nH]c1C(=O)Nc1ccccn1 do in these assays?
KCNQ2 pot: 0.03; KCNQ2 pot baseline: 0

How did Cc1ccc(NC(=S)N2CCCN(Cc3ccc(F)cc3)C2)c(C)c1 do in these assays?
KCNQ2 pot: 0.48; KCNQ2 pot baseline: 0.56

What do the screens show for `Cc1cccc(C)c1NC(=O)CN1C(=O)CCSc2ccc(S(=O)(=O)N3CCCC3)cc21`?
KCNQ2 pot: 1.2; KCNQ2 pot baseline: 0.82

Results for O=C(CN1CCSCC1)N/N=C/c1ccccc1F ?
KCNQ2 pot: 0.73; KCNQ2 pot baseline: 0.74

What do the screens show for `CC[C@@H]1[C@H]2CCCC(=O)N3CC[C@@H](C[C@@H]1OC(=O)NCc1ccccc1)[C@@H]23`?
KCNQ2 pot: 1.5; KCNQ2 pot baseline: -2.4

Results for CN(c1ccc(OCC(=O)NC2CCCC2)cc1)S(=O)(=O)c1cccs1 ?
KCNQ2 pot: 0.23; KCNQ2 pot baseline: 0.04

What do the screens show for `O=C(CSc1nnc(-c2ccccc2F)o1)OCc1ccccc1`?
KCNQ2 pot: 1; KCNQ2 pot baseline: 0.68

What do the screens show for `O=S(=O)(Nc1nc2ccccc2s1)c1cc(F)ccc1F`?
KCNQ2 pot: 1.3; KCNQ2 pot baseline: -0.91

Results for COc1ccc(CC(=O)Oc2ccc(C)cc2Br)cc1OC ?
KCNQ2 pot: 0.77; KCNQ2 pot baseline: 0.02

Results for COC(=O)C(=O)Nc1nnc(COc2ccccc2)s1 ?
KCNQ2 pot: 0.06; KCNQ2 pot baseline: 0.5

Results for CN(c1nc2nonc2nc1NC1CC1)C1CCOC1 (stereo not given) ?
KCNQ2 pot: 0.09; KCNQ2 pot baseline: 0.65

What do the screens show for `Cc1cc(C(=O)NC(Cc2c[nH]c3ccccc23)C(=O)O)c(C)o1` (stereo not given)?
KCNQ2 pot: 1.8; KCNQ2 pot baseline: 0.56

What do the screens show for `COC(=O)c1ccc(NC(=O)CSc2nc(C)cc(=O)[nH]2)cc1`?
KCNQ2 pot: 1.9; KCNQ2 pot baseline: -0.17

What do the screens show for `O=C(CNCC1CCCO1)N1CCCc2ccccc21` (stereo not given)?
KCNQ2 pot: 0.02; KCNQ2 pot baseline: 0.72

How did O=C(CSc1n[nH]c(-c2cccs2)n1)NCc1ccc2c(c1)OCO2 do in these assays?
KCNQ2 pot: 0.49; KCNQ2 pot baseline: 1.1

How did O=C(COCc1cc(-c2ccco2)on1)NC1CCCCC1 do in these assays?
KCNQ2 pot: 0.06; KCNQ2 pot baseline: -0.03

How did CC(NS(=O)(=O)c1ccc(CCC(=O)NCc2ccco2)cc1)c1ccccc1 (stereo not given) do in these assays?
KCNQ2 pot: 2.5; KCNQ2 pot baseline: -3.6

Results for CCn1cc(C2=NOC(C(=O)Nc3ccccc3C(=O)OC)C2)c(C)n1 (stereo not given) ?
KCNQ2 pot: 2; KCNQ2 pot baseline: 0.96

How did O=C(CSc1nccc(=O)[nH]1)N1CCN(c2ccccc2)CC1 do in these assays?
KCNQ2 pot: 0.67; KCNQ2 pot baseline: -0.12

How did COc1cc([N+](=O)[O-])ccc1NC(=O)Nc1ccc2c(c1)OCCO2 do in these assays?
KCNQ2 pot: 1.8; KCNQ2 pot baseline: 0

Results for CCCc1nc2ccccc2c(C(=O)OCC(=O)c2ccc3c(c2)NC(=O)CO3)c1CC ?
KCNQ2 pot: 1.6; KCNQ2 pot baseline: 1.1

What do the screens show for `Cc1cc(C)c2[nH]c(C(=O)N3CCC(n4nccc4NC(=O)C4CC4)CC3)c(C)c2c1`?
KCNQ2 pot: 0.91; KCNQ2 pot baseline: -0.48

Results for CN(C)c1ccc(N/C=C/C(=O)c2ccco2)cc1 ?
KCNQ2 pot: 1.5; KCNQ2 pot baseline: -0.32

What do the screens show for `CC(=O)Nc1cccc(-c2nn[nH]n2)c1`?
KCNQ2 pot: 1.2; KCNQ2 pot baseline: 0.32

Results for Cc1ccc(C(C)NC(=S)NCc2ccc(F)cc2)cc1C (stereo not given) ?
KCNQ2 pot: 8.1*; KCNQ2 pot baseline: -0.97*

Results for COCCNc1ccc(-c2n[nH]c(=O)c3ccccc23)cc1[N+](=O)[O-] ?
KCNQ2 pot: 0.21; KCNQ2 pot baseline: -0.4

How did O=C(CCCN1C(=O)S/C(=C\c2ccccc2)C1=O)NNC(=O)c1ccccc1O do in these assays?
KCNQ2 pot: 0.08; KCNQ2 pot baseline: 0.38

Results for O=S(=O)(Nc1cc(S(=O)(=O)N2CCOCC2)ccc1N1CCOCC1)c1ccc2c(c1)OCCO2 ?
KCNQ2 pot: 0.13; KCNQ2 pot baseline: -0.9

What do the screens show for `CCn1nc(C)c(CNC(=O)CCc2nnc(-c3ccc(C(C)=O)s3)o2)c1C`?
KCNQ2 pot: 0.07; KCNQ2 pot baseline: 0.4

Results for CCCCNC(=O)c1ccc2c(=O)n(CCCOCC)c(=S)[nH]c2c1 ?
KCNQ2 pot: 1.4; KCNQ2 pot baseline: -1.1

What do the screens show for `Cc1cc(C)cc(N(C(=O)c2csnn2)C(C(=O)NC2CCCC2)c2cccnc2)c1` (stereo not given)?
KCNQ2 pot: 0.74; KCNQ2 pot baseline: -1.8

Results for Cc1cc(C(F)(F)F)nc(CCNCc2c(C(=O)N3CCCC3)nc3ccccn23)n1 ?
KCNQ2 pot: 0.51; KCNQ2 pot baseline: -0.08

Results for O=C(Nc1nccs1)c1ccc(COc2ccc(F)cc2)o1 ?
KCNQ2 pot: 0.52; KCNQ2 pot baseline: 0.31

By substructure, the entries above with an aryl thioether with sulfur outside any ring
What do the screens show for `CCOC(=O)c1nnn(-c2nonc2N)c1CSc1nnc(N)s1`?
KCNQ2 pot: 0.34; KCNQ2 pot baseline: -2

Results for O=C(NCC(c1ccc(F)cc1)N1CCOCC1)c1cccnc1Sc1ccccc1Cl (stereo not given) ?
KCNQ2 pot: 0.14; KCNQ2 pot baseline: -0.12

What do the screens show for `CCCn1c(SCC(=O)Nc2cccc(C)n2)nnc1-c1ccco1`?
KCNQ2 pot: 1.6; KCNQ2 pot baseline: -0.59

How did COc1ccc(NC(=O)CSc2nnc(Cc3cccs3)n2-c2ccc(C)cc2)cc1 do in these assays?
KCNQ2 pot: 0.02; KCNQ2 pot baseline: -2.4

What do the screens show for `O=C(CSc1nnc(-c2ccccc2F)o1)OCc1ccccc1`?
KCNQ2 pot: 1; KCNQ2 pot baseline: 0.68

What do the screens show for `COC(=O)c1ccc(NC(=O)CSc2nc(C)cc(=O)[nH]2)cc1`?
KCNQ2 pot: 1.9; KCNQ2 pot baseline: -0.17

How did O=C(CSc1n[nH]c(-c2cccs2)n1)NCc1ccc2c(c1)OCO2 do in these assays?
KCNQ2 pot: 0.49; KCNQ2 pot baseline: 1.1

How did O=C(CSc1nccc(=O)[nH]1)N1CCN(c2ccccc2)CC1 do in these assays?
KCNQ2 pot: 0.67; KCNQ2 pot baseline: -0.12

Some of the compounds tested; rates above refer to the full screens.
